LASV entry inh: blocks Lassa virus binding to or entry into cells; Lassa virus pseudotype entry inhibition, cell reporter; control for the full effect not named in the record; Potency, µM (series often up to 37.9 µM), for inactives: at the top dose activity change, negative = inhibition, actives largely listed as inhibitors; 300,000 tested, 1.2% active; AID 540256; active means well fitted inhibition curve with a large enough effect; inconclusive means small, poorly fitted or top-dose-only effect, or effect the other way; inactive means flat fitted curve, though single readings scatter; tested in HEK293 cells; further: on the % scale 0 is the no-effect control and ±100 the full control effect; nearly all actives have a fitted effect of over 50% in size; luciferase read-out
Marburg entry inh: blocks Marburg virus binding to or entry into cells. AID 540276. Marburg virus pseudotyped entry inhibition, cell reporter; control for the full effect not named in the record; about a third of the inactives were read at about 46 µM. Potency, µM (top dose mostly 37.8 µM), without a hit: at the top dose activity change, negative = inhibition, actives largely listed as inhibitors. 300,000 tested, 1.8% active; active = well fitted inhibition curve with a large enough effect; inconclusive = small, poorly fitted or top-dose-only effect, or effect the other way; inactive = flat fitted curve, though single readings scatter; tested in HEK293 cells; about a fifth of its hits are not listed in these tables; further: on the % scale 0 is the no-effect control and ±100 the full control effect; luciferase read-out
NS1 function inh: inhibitors of influenza NS1 protein function. S. cerevisiae slowed by influenza A NS1, growth recovery by OD600. AID 2326. 270,000 tested, 0.4% active. Potency, µM (doses to about 46.1 µM), without a hit: top-dose activity, positive = more growth; further: actives are rising curves; nearly all actives have a fitted effect of over 50% in size
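A cell-based growth assay was used: compounds that relieve NS1-induced slow growth of budding yeast raise OD600. Assay medium was yeast nitrogen base with ammonium sulphate and -URA supplement, pH 6.0, with 2% galactose.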
SARS PLP yeast: blocks SARS-CoV papain-like protease in a yeast assay; S. cerevisiae expressing SARS-CoV PLpro, growth rescue; control for the full effect not named in the record; Potency, µM (titrated, usually from 32.9 µM), for inactives: top-dose activity, positive = growth rescue; 330,000 tested, 0.19% active; AID 485353; further: 0% is about no effect; nearly all actives have a fitted effect of over 55% in size; growth read by luminescence after 48 h
RE007 growth inh: less growth of the S. pombe RE007 Vpr strain. S. pombe RE007 Vpr strain, BacTiter-Glo ATP luminescence, 24 h; control for the full effect not named in the record. Potency, µM (series often up to 92.2 µM), for the others: at the highest dose activity change, negative = less growth. 360,000 tested, 0.21% active. AID 651644; active = well fitted falling curve with a large enough effect; inconclusive = small, poorly fitted or top-dose-only effect; inactive = no such curve, though single readings can be large or run the other way;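 further: on the % scale 0 is the no-effect control and ±100 the full control effect; nearly all actives have a fitted effect of over 50% in size; the assay follows cell death caused by Vpr and the record does not say whether a fall means rescue or toxicity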
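Fission yeast RE007 carrying one integrated HIV-1 vpr copy, seeded at OD 0.01 in PMG+AL medium with 23 nL pinned compound. Grown 24 h at 30 degrees; viability read by BacTiter-Glo luminescence after 5 min.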
Cruzain inh noDet: cruzain (T. cruzi) inhibition without detergent; purified cruzain, Z-FR-AMC fluorescence, no detergent; Potency, µM, inactives show max response, negative = inhibition, usual class: inhibitors; 200,000 tested, 2.3% active; AID 1476; active means well fitted curve in the direction sought with a large enough effect; inconclusive means small, poorly fitted or top-dose-only effect, or another doubt; inactive means no such curve, though single readings can be large; an effect the other way counts as inactive or inconclusive;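 further: plate controls were enzyme without inhibitor for no effect and buffer without enzyme for full effect; nearly all actives have a fitted effect of over 40% in size; top concentration of the series not given in the record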
Target sequence (P25779 123-467 limits assumed): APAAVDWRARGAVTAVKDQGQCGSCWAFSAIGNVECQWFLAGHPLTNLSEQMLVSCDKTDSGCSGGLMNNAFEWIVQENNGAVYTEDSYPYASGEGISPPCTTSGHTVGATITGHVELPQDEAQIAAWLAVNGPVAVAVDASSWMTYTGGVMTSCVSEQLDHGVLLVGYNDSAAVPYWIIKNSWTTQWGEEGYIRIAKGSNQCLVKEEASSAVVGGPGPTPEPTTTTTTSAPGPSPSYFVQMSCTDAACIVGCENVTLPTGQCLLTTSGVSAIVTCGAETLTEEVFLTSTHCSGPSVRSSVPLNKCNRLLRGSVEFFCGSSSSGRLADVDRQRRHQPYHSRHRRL
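Purified cruzain at 1.5 nM, pre-incubated 15 min with compound at room temperature in 100 mM sodium acetate pH 5.5, 5 mM DTT, 0.00005% Triton X-100. Reaction started with 2 uM Z-FR-AMC; AMC fluorescence increase over 60 s gives rate.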
2A StopGo: lowers the luciferase signal of an FMDV 2A StopGo reporter. human cells with a luciferase reporter of 2A StopGo recoding; control for the full effect not named in the record. Potency, µM (doses to about 57.9 µM), for inactives: top-dose signal change, negative = less light. 410,000 tested, 1.2% active. AID 1159524; active = well fitted falling curve with a large enough effect; inconclusive = small, poorly fitted or top-dose-only effect; inactive = no such curve, though single readings can be large or run the other way; tested in HEK293T cells; further: on the % scale 0 is the no-effect control and ±100 the full control effect; nearly all actives have a fitted effect of over 45% in size; luciferase light after 4 h
Cruzain Triton: cruzain (T. cruzi) inhibition with detergent | purified cruzain, Z-FR-AMC fluorescence, 0.01% Triton | P25779 | 200,000 tested, 0.43% active | Potency, µM, for the others: max response, negative = inhibition, actives largely listed as inhibitors; active means well fitted curve in the direction sought with a large enough effect; inconclusive means small, poorly fitted or top-dose-only effect, or another doubt; inactive means no such curve, though single readings can be large; an effect the other way counts as inactive or inconclusive;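 further: plate controls were neutral wells for no effect and buffer without enzyme for full effect; nearly all actives have a fitted effect of over 40% in size; top concentration of the series not given in the record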
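In this qHTS format, compounds are incubated with 1.5 nM cruzain for 15 min at room temperature before 2 uM Z-FR-AMC is added. Release of AMC is followed at 360/450 nm, and progress is taken as the 60 s fluorescence difference.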
Starred values were filed as active, the others as inactive; u = inconclusive; x = no result given; & = joins results of further samples; [ ] = another dose, or the depositor's remark. Unless noted, the call rests on the fitted dose curve; in most records, active means well fitted rising curve with a large enough effect; inconclusive means small, poorly fitted or top-dose-only effect; inactive means no such curve, though single readings can be large or run the other way. Potency means the concentration at half of the fitted maximal effect.

SMILES	LASV entry inh	Marburg entry inh	NS1 function inh	SARS PLP yeast	RE007 growth inh	Cruzain inh noDet	2A StopGo	Cruzain Triton
CCOc1ccc(S(=O)(=O)N2CCCCC2)cc1NC(=O)Cc1cccs1	u	-8.1%	x	-3.5%	-2.7%	x	-3.7%	x
COc1ccc(-c2c3c(nc4sc(C(=O)Nc5ccccc5F)c(N)c24)CC(C)(C)CC3=O)cc1	16.4%[46.1 µM]	u	x	x	x	-13.5%	-17.1%	5.2%
COc1ccc(CN2C(=O)C3C4C=CC(C4)C3C2=O)cc1 (stereo not given)	8.3%	-5.5%	-12.1%	0.9%	-8.8%	-5.2%	-3.8%	8.7%
C/C(CC(C)C)=N\NS(=O)(=O)c1ccc(C)c([N+](=O)[O-])c1	x	x	6.2%	-0.4%	-2.8%	x	36.4%[activator]	x
COc1ccc(S(=O)(=O)N2CCCC(C(=O)O)C2)cc1 (stereo not given)	0.2%	5.9%	10.0%	7.6%	5.5%	5.2%	-25.3%	6.2%
Cn1cc(S(=O)(=O)N2CCCCC2)cc1C(=O)Nc1ccc(OC(F)(F)F)cc1	-21.2%[46.1 µM]	x	x	x	x	-3.1%	-22.7%	-4.3%
O=C(NCCO)/C(=C\c1cccc([N+](=O)[O-])c1)NC(=O)c1ccco1	x	x	-4.4%	7.0%	-3.4%	-7.8%	-0.2%	-3.6%
Nc1ccc(C(=O)O)cc1	x	x	x	x	11.1%&13.2%&-11.7%	-4.6%&1.8%	-0.1%&-28.0%&-13.4%&-3.4%	-2.1%&0.6%
CC(=O)Nc1ccccc1NC(=O)C/C(C)=N/NC(=O)c1ccc([N+](=O)[O-])c(Cl)c1	-0.6%	u	13.1%	17.6%	-1.0%	-0.7%	-3.4%	0.0%
Cc1cc(C)c(NC(=O)CSc2nccn2C)c(C)c1	u	11.0%	11.6%	9.6%	-26.2%	1.5%	13.9%	-2.5%
Cc1ccsc1C(=O)NC1CCCN(Cc2ccc(Cl)cc2)C1 (stereo not given)	-0.2%	-16.3%	4.3%	-1.0%	1.1%	x	0.0%	x
CCCN(CCC)S(=O)(=O)c1ccc(NC(=O)Cc2cccs2)cc1	-80.1%[14.3 µM]	-22.0%	-6.6%	-11.1%	-10.8%	-2.8%	22.3%	-9.1%
O=C(c1ccc(F)cc1)c1ccc(N2CCCC2)cc1	u	u	-3.0%	-8.4%	0.0%	2.3%	6.3%	-6.5%
COC(=O)C1(C)NC(c2ccco2)C2C(=O)N(c3ccc(F)cc3)C(=O)C21 (stereo not given)	u	11.1%[46.1 µM]	-0.5%	-1.5%	-10.1%	x	14.5%	x
C#Cc1ccc(CN2CCN(Cc3ccsc3)C(CCO)C2)cc1 (stereo not given)	19.0%[46.1 µM]	-1.3%[46.1 µM]	2.2%	-0.5%	-3.9%	x	-12.3%	x
CCCCCCCCNC(=O)c1cnccn1	10.5%	u	-47.1%	-11.1%	-0.7%	1.7%	-5.1%	-0.2%
CCN(CC)/C(Sc1ccccc1)=C(\C(Cl)=C(Cl)Cl)[N+](=O)[O-]	-1.7%	22.7%[46.1 µM]	x	-2.3%	1.2%	x	-22.4%	x
CCc1ncc(C)nc1CC	x	x	7.4%	0.0%	3.0%	x	-15.3%	x
Cc1cccc(C(=O)Oc2ccc3ccc(O)cc3c2)c1	x	x	-1.1%	1.2%	21.4%	x	0.0%	x
COc1ccccc1N1CCN(S(=O)(=O)c2cccc3nsnc23)CC1	8.4%	1.4%	-4.0%	9.1%	0.1%	-8.4%	-13.0%	-2.1%
CCn1c(C)nc2cc(N)ccc21	x	x	3.3%	2.0%	-11.8%	x	-12.4%	x
COC(=O)N/N=C/c1ccc(OS(=O)(=O)c2ccc(C)cc2)c(OC)c1	7.94µM*	6.2%[46.1 µM]	-13.3%	-1.8%	4.1%	x	-4.3%	x
COc1ccc(CCNC(=O)c2cc(S(=O)(=O)N3CCCC(C)C3)cn2C)cc1OC (stereo not given)	6.9%[46.1 µM]	x	x	x	x	13.0%	u	-2.3%
Nc1cnnc(N/N=C\c2ccccc2)c1Cl	-7.2%[46.1 µM]	u	x	x	-7.8%	x	30.6%[activator]	x
O=C(COC(=O)c1ccc(-c2cnc3ccccc3n2)cc1)c1ccccc1	29.0%	-1.0%	6.5%	9.9%	-4.1%	-9.1%	19.9%	1.0%
COc1ccc(NC(=O)C(=O)c2cn(CC(=O)N3CCCC3)c3ccccc23)cc1OC	u	u	-6.3%	-2.6%	5.7%	x	-9.6%	x
O=c1c2c(nc3c(-c4ccc(Cl)cc4)c[nH]n13)CCC2	u	u	x	-5.3%	-17.0%	x	-14.6%	x
CN1C2CCC1C(COC(=O)c1ccccc1)C(O)C2 (stereo not given)	11.2%[46.1 µM]	9.2%[46.1 µM]	3.1%	-0.7%	9.0%	x	-14.9%	x
Cc1ccc(S(=O)(=O)/N=C2\C=C(Nc3ccc(O)cc3)C(=O)c3ccccc32)cc1	2.82µM*	u	x	-0.8%	-25.2%	x	10µM*	x
COc1ccccc1NS(=O)(=O)c1ccc(C(N)=O)cc1	23.0%	26.5%[46.1 µM]	5.7%	0.3%	-1.6%	x	31.6%[activator]	x
O=C(/C(=C/O)N=Nc1cccc(C(F)(F)F)c1)c1ccccc1	u	u	x	-1.0%	-20.7%	x	u	x
Cc1ccc(C(=O)Nc2nnn(C)n2)cc1	13.7%	-6.4%	-3.5%	-4.8%	-12.6%	-2.1%	35.8%[activator]	1.1%
COc1ccc(CC(=O)N/N=C(/C)c2ccco2)cc1	-10.0%[46.1 µM]	0.4%[46.1 µM]	-0.7%	0.9%	4.3%	x	-13.6%	x
Clc1ccccc1-c1nnc2n1CCCCC2	6.3%	-4.1%	1.8%	0.7%	15.4%	x	-8.2%	x
COC(=O)c1ccc(CSc2nc3scc(-c4cccs4)c3c(=O)[nH]2)o1	-10.6%	-15.7%	-6.6%	0.0%	-2.0%	15.8µM*	-0.7%	-7.0%
COc1ccc(C(=O)COC(=O)c2ccc(NC(=O)c3ccccc3)cc2)cc1	-4.5%	-3.8%	-5.2%	2.2%	4.0%	12.6µM*	5.7%	5.9%
CCN(CC)CCCNC(=O)c1oc2ccc(S(=O)(=O)N3CC(C)CC(C)C3)cc2c1C (stereo not given)	u	10µM*	-10.8%	1.0%	-6.0%	x	15.4%	x
CN1CCN(CC(=O)Nc2c(C(=O)C3CC3)oc3ccccc23)CC1	3.5%	u	-1.3%	-3.3%	17.0%[3.69 µM]	-0.7%	-13.9%	-5.7%
Cc1ccc(-c2cc(C(=O)N3CCCC(C(F)(F)F)C3)c3ccccc3n2)o1 (stereo not given)	-24.0%	23.9%	x	-17.0%	-0.3%	x	-1.9%	x
CCOc1ccccc1N(CC(=O)N1CCC(C(N)=O)CC1)S(=O)(=O)c1ccc(SC)cc1	9.0%	15.5%	-4.7%	-0.6%	-10.7%	x	28.3%	x
Cc1nc(SCc2c(F)cccc2Cl)c2c(=O)n(C)c(=O)n(C)c2n1	x	x	-23.7%	-0.5%	7.6%	u	-1.5%	0.1%
CCOCCCNCc1cn(-c2ccc(F)cc2F)nc1-c1ccccc1C	u	u	4.1%	-6.6%	-15.6%	x	-9.3%	x
Cc1nnc(SCc2cc(=O)oc3ccc4ccccc4c23)n1Cc1ccccc1	u	u	1.1%	-14.0%	3.7%	9.9%	-11.7%	-3.9%
O=c1[nH]c(-c2ccccc2)cs1	5.3%	0.6%	9.6%	-3.8%	-11.2%	-1.3%	-13.8%	-1.3%
Cc1ccc(S(=O)(=O)NCCC(=O)Nc2ccncc2)cc1C	13.9%	-1.5%[46.1 µM]	x	-2.3%	-8.5%	x	-4.7%	x
COc1ccc(S(=O)(=O)N(CC(=O)O)c2ccc(C)cc2)cc1	-3.8%	10.9%	-2.3%	9.5%	-11.3%	3.5%	6.8%	0.6%
CC1CCN(C(=O)c2ccc3c(c2)N(Cc2ccccc2)C(=O)c2ccccc2S3(=O)=O)CC1	-24.4%[46.1 µM]	u	x	x	x	1.7%	26.6%	-1.7%
O=C1CC(N2CCC(c3nc4ccccc4o3)CC2)C(=O)N1c1cc(Cl)cc(Cl)c1 (stereo not given)	-2.5%	0.6%	-32.4%	-55.5%	28.2µM*	u	-29.0%	-6.1%
Clc1cccc(-c2ccc(CNCCSc3nnnn3-c3ccccc3)o2)c1	3.1%[46.1 µM]	-18.3%[46.1 µM]	x	x	x	29.7%	u	-6.2%
CC1CN(C(=O)c2cccc(COc3ccccc3Cl)c2)CC(C)O1 (stereo not given)	0.3%[46.1 µM]	u	-2.0%	-0.3%	0.5%	x	-5.3%	x
CCC1CCCCN1C(=O)c1cc2cc(Br)ccc2oc1=O (stereo not given)	x	x	u	0.9%	9.7%	-1.3%	4.5%	0.5%
Cn1ncc2c(NNC(=O)C3CCCCC3)ncnc21	7.4%	0.2%[46.1 µM]	x	1.1%	2.6%	x	-5.7%	x
O=C(O)CC(C(=O)Nc1ccc(Cl)cc1Cl)C1CCCO1 (stereo not given)	x	x	4.3%	0.4%	7.3%	x	-2.2%	x
CCOc1ccc(-c2ccc(SCC(=O)N3CCN(c4ccccc4)CC3)nn2)cc1	5.9%	11.2%	2.2%	19.3%	x	-7.7%	x	0.7%
CC1CCN(CCCCOc2ccc([N+](=O)[O-])cc2)CC1	6.2%	u	-9.8%	-2.4%	1.0%	-6.0%	5.4%	1.7%
Cc1ccc(-c2cc(C(=O)NC3CCCCC3)no2)cc1	8.4%[46.1 µM]	u	-62.4%	-4.8%	3.0%	x	42.3%[activator]	x
CC1=C(C(=O)OCC(C)C)C(c2cccc(F)c2)N2C(=O)C(C)SC2=N1 (stereo not given)	-4.6%	u	u	-14.6%	1.9%	12.2%	-37.7%	-8.2%
CCOc1ccccc1NC(=O)C(C)SCc1ccccc1 (stereo not given)	u	u	-6.3%	4.2%	0.6%	x	0.0%	x

The order is random (roughly 4.8% active in at least one column).
